FPR binder: human FPR ligands by binding competition, primary screen, cell-based, FPRL1 counter-screen, flow cytometry | actives 0.74% (n = 24,000) | inhibition, %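 (tested at 6.7 µM)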 | fMet-Leu-Phe receptor (Homo sapiens), P21462 | AID 440, 2006 | FPR-expressing cells, fluorescent ligand binding;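 further: 0% = buffer wells and 100% = receptor blocker peptide wells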
Target sequence (P21462 whole entry, looked up): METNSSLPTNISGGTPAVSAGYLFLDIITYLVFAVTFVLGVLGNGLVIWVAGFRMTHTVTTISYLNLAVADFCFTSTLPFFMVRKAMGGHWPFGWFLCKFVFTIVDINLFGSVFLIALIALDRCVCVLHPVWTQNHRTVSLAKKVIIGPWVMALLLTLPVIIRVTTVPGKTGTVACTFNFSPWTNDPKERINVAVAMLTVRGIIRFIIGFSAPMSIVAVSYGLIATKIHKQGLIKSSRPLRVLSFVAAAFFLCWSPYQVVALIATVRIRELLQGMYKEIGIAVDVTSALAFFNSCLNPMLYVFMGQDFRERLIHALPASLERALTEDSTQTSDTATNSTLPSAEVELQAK
FPRL1 binder: human FPRL1 ligands by binding competition, primary screen, cell-based, FPR counter-screen, flow cytometry. actives 0.3% (n = 24,000). FPRL1-expressing cells, fluorescent ligand binding inhibition. AID 441, 2006. N-formyl peptide receptor 2 (Homo sapiens), P25090. inhibition, %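 (tested at 6.7 µM)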;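 further: 0% = buffer alone and 100% = receptor blocker peptide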
Target sequence (P25090 whole entry, looked up): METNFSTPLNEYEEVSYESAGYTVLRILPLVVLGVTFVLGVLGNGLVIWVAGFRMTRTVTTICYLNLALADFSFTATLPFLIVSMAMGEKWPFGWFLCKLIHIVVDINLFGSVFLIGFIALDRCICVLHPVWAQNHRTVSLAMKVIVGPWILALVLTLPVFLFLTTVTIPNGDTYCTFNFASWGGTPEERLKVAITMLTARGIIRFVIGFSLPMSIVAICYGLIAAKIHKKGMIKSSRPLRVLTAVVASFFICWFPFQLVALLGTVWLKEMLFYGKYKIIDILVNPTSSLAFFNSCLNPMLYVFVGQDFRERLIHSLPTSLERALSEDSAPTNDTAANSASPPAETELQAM
VCAM-1 down: inhibitors of TNFa-induced VCAM-1 surface display, cell-based, plate reader, pooled HUVEC, TNFa stimulus (AID 454) | HUVEC TNFa-induced VCAM-1 surface immunofluorescence, plate reader; numbers were filed only for top-ranked candidate wells | inhibition, % at 5 µM | actives 0.2% (n = 10,000);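 active means compound among top-ranked inhibitors of TNF-induced VCAM-1 adhesion protein staining, with the hit upheld by image or statistical review; inactive means the rest, including hits rejected on review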;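 further: 0% = TNFa with vehicle and 100% = cells without TNFa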
VCAM-1 augmentation: enhancers of VCAM-1 display on endothelial cells, imaging, high-content imaging, pooled HUVEC, TNFa stimulus (AID 457); Pooled HUVEC, TNFa-induced VCAM-1 immunofluorescence imaging; hits of this screen are not shown here; calls only; actives 0.2% (n = 10,000);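 active means a top-ranked rise in VCAM-1 staining upheld on image or statistical review; inactive means the rest, including candidates rejected on review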;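 further: compounds tested at 5 µM in the well; cells exposed to compound for 24 hours before fixing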
VCAM-1 imaging: inhibitors of TNFa-induced VCAM-1 surface display, imaging, high-content imaging, pooled HUVEC, TNFa stimulus (AID 456). HUVEC TNFa-induced VCAM-1 surface expression, immunofluorescence imaging; numbers were filed only for top-ranked candidate wells. inhibition, % at 5 µM, or IC50 in µM where a hit was titrated. actives 0.2% (n = 10,000);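 active means top tenth filtered wells with inhibition above zero that passed visual or statistical confirmation; inactive means the rest, including hits rejected on review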;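 further: 0% = stimulated vehicle wells and 100% = unstimulated cells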
Numbers without * were called inactive; i = inactive; u = inconclusive; x = no result given.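 How the source made its calls, unless noted: active means mean above 30%; inconclusive means self-fluorescent; inactive means the rest.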 Some of the compounds tested; rates above refer to the full screens.

SMILES	FPR binder	FPRL1 binder	VCAM-1 down	VCAM-1 augmentation	VCAM-1 imaging
CCCCN(CC)S(=O)(=O)c1ccc(C(=O)Nc2nnc(CSC)o2)cc1	0	-4	x	x	x
CCOC(=O)N1CCC(n2c(=S)[nH]c3cc(OC)c(OC)cc3c2=O)CC1	-1	-2	i	i	i
COc1cccc(C2/C(=C(/O)c3cnn(-c4ccccc4)c3C)C(=O)C(=O)N2CCN(C)C)c1 (configuration not stated)	-4	1	x	x	x
O=C(NCC1CCCO1)C1c2ccccc2C(=O)N1Cc1ccc2c(c1)OCO2 (configuration not stated)	-4	-4	x	x	x
Cn1c(C(=O)NC2CCCC2)cc2c(=O)n(C)c3ccccc3c21	3	-3	x	x	x
COc1cc2c(cc1OC)C(c1ccco1)CC(=O)N2 (configuration not stated)	-4	-5	x	x	x
Cc1ccc(CCNC(=O)C2CCCN(C(=O)c3cc4sccc4n3C)C2)cc1 (configuration not stated)	10	-1	x	x	x
Cc1nc2nc(SCC(=O)N3CCOCC3)nn2c(C)c1Cc1ccccc1	-4	8	x	x	x
Cc1nc2cc(C(=O)O)ccc2n1-c1ccccc1	15	12	x	x	x
Cc1cc(NC(=O)c2ccc(S(=O)(=O)N(C)C)cc2)no1	-3	0	x	x	x
CCCCN(C)CCNC(=O)c1ccc2c(c1)NC(=O)C(N1CCCCC1)S2 (configuration not stated)	1	-5	x	x	x
COc1ccc(CCNC(=O)CN2C(=O)C3(OCCCO3)c3ccccc32)cc1OC	-2	2	x	x	x
Cc1cc(N2CCN(C(c3ccccc3)c3ccc(Cl)cc3)CC2)n2ncnc2n1 (configuration not stated)	9	3	x	x	x
CCOc1ccccc1CNC(=O)C1CCN(C(=O)c2sccc2-n2cccc2)CC1	4	0	x	x	x
Cc1nc(NC(=O)c2csc3ccccc23)sc1C	0	-5	i	i	i
Cn1c(C(=O)NCCN2CCN(Cc3ccccc3)CC2)cc2c(=O)n(C)c3ccccc3c21	2	0	x	x	x
O=C(CN1CCN(Cc2ccc(F)cc2Cl)C1=O)NCCCN1CCOCC1	-2	2	i	i	i
OCc1nnn(-c2cccc(C(F)(F)F)c2)c1CO	-5	-9	x	x	x
C=CCn1c(NC(=O)c2ccccc2)c(C#N)c2nc3ccccc3nc21	u	32*	x	x	x
CC(=O)c1c(C)nc(-c2ccc(Cl)cc2)nc1N=CN(C)C	-15	-12	x	x	x
CCc1cccc(NC(=O)Cn2ncn3c(cc4ccccc43)c2=O)c1	13	2	x	x	x
O=S(=O)(Nc1cccnc1)c1ccc2c(c1)OCCO2	0	2	i	i	i
Cn1c(=O)[nH]c(=O)c2c1nc(CN1CCOCC1)n2CCc1ccccc1	-2	-3	x	x	x
CCOC(=O)c1oc2ccccc2c1NC(=O)Cc1cccs1	-8	-7	x	x	x
O=C(c1ccc2c(c1)N(Cc1ccc(F)cc1)C(=O)CS2)N1CCOCC1	1	-2	x	x	x
(cont.)
SMILES	FPR binder	FPRL1 binder	VCAM-1 down	VCAM-1 augmentation	VCAM-1 imaging
Cc1ccc(NC(=O)CC2Oc3ccc(C)cc3NC2=O)cc1 (configuration not stated)	-2	-4	x	x	x
CCOC(=O)N1CCC(NC(=O)CS(=O)(=O)Cc2nc(-c3ccccc3C)oc2C)CC1	6	5	i	i	i
Cc1cc(C)cc(NC(=O)C2CCCN(S(=O)(=O)c3cnc[nH]3)C2)c1 (configuration not stated)	-6	-1	i	i	i
O=C(NCc1cccnc1)C1CCN(S(=O)(=O)N2CCOCC2)CC1	-3	4	x	x	x
CC(C)N(Cc1nc2ccccc2[nH]1)C(C)C	-3	4	x	x	x
CCOC(=O)C1C(=O)Oc2ccc3ccccc3c2C1C1CCOC1=O (configuration not stated)	19	10	x	x	x
COc1ccc(N=Cc2c(O)[nH]c3ccccc23)cc1OC	7	-1	x	x	x
Cc1cc(S(=O)(=O)N(Cc2ccccc2)Cc2ccc(N(C)C)cc2)ccc1-n1cnnn1	-8	-6	i	i	i
Cc1noc(/C=C/N(C)C)c1S(=O)(=O)N1CCCC(C(=O)NC2CCCCC2)C1 (configuration not stated)	1	5	i	i	i
COc1ccc(C2CCCN2C(=O)Nc2ccc(F)cc2)cc1OC (configuration not stated)	-3	1	x	x	x
CN(C)c1ccc(CNC2CC(C)(C)NC(C)(C)C2)cc1	-6	1	i	i	i
CCC(CCC(=O)Nc1cccc(C(=O)O)c1)C(=O)O (configuration not stated)	16	3	i	i	i
CCCCC(c1nnnn1C1CCCC1)N1CCN(C2CCCCC2)CC1 (configuration not stated)	-2	-1	i	i	i
Cc1cccc(N=C2NC(=O)CS2)c1C	0	-1	i	i	i
O=C(NCc1ccco1)c1cc(-c2ccncc2)nc2ccccc12	-10	8	x	x	x
Cc1ccc(N2C(=O)c3ccc(N)cc3C2=O)cc1C	-5	-11	x	x	x
CCCN(CCC)S(=O)(=O)c1ccc(C(=O)Nc2nnc(-c3cc(OC)cc(OC)c3)o2)cc1	-8	-4	x	x	x
CC1NC2(C(=O)N(Cc3ccccc3)c3ccccc32)C2C(=O)N(c3ccccc3)C(=O)C12 (configuration not stated)	2	-1	i	i	i
CCn1cc(SCC(=O)Nc2cc(C)on2)c2ccccc21	10	3	i	i	i
COc1ccc(OC)c(CNC(=O)C2CCCN(C(=O)N(C)C)C2)c1 (configuration not stated)	-6	4	x	x	x
CCc1cc2c(=O)c(Oc3ccccc3F)c(C)oc2c(CN(C)C)c1O	5	-4	x	x	x
COC(=O)c1ccc(C2C(C#N)=C(N)Oc3cc(C)n(C)c(=O)c32)cc1 (configuration not stated)	-2	-4	i	i	i
COc1ccccc1N1C(=O)CCC1(C#N)c1ccccc1 (configuration not stated)	0	2	i	i	i
Cn1c(=N)n(CC(=O)O)c2ccccc21	1	-1	i	i	i
Cc1c(C(=O)Nc2ccc3c(c2)OCCO3)sc2nc(-c3ccccc3)cn12	4	12	x	x	x
Next part
SMILES	FPR binder	FPRL1 binder	VCAM-1 down	VCAM-1 augmentation	VCAM-1 imaging
CCOC(=O)N1CCC(n2c(=S)[nH]c3cc(OCC)c(OCC)cc3c2=O)CC1	-3	-1	x	x	x
CC1CCC(NC(=O)Cn2c(=O)[nH]c3ccsc3c2=O)CC1 (configuration not stated)	0	-3	x	x	x
CCn1cc(C(C)NC(=O)COc2ccc(Cl)cc2C)c(C)n1 (configuration not stated)	-1	-2	i	i	i
O=S1(=O)C=CC(Nc2cccc(Cl)c2)C1 (configuration not stated)	5	-1	i	i	i
O=C(Cn1cc2c(n1)CCCC2)NCCCN1CCN(C2CCCCC2)CC1	0	-5	x	x	x
O=C1C2CCCN2C(c2ccc(Cl)cc2)N1c1nccs1 (configuration not stated)	-3	-1	i	i	i
CCOC(=O)N1CCC(N(CCCOC)C(=O)Nc2ccc(CC)cc2)CC1	-4	2	i	i	i
Cc1ccc(CNC(=O)c2oc3ccc(S(=O)(=O)N4CCC5(CC4)OCCO5)cc3c2C)cc1	4	2	x	x	x
CC(NC(=O)c1cccs1)C(c1cccs1)N1CCOCC1 (configuration not stated)	0	-3	x	x	x
Cc1ccc(C(=O)Nc2nccs2)cc1S(=O)(=O)N1CCCCC1	0	-1	x	x	x
COc1ccc2nc3sc(C(=O)N4CCN(C)CC4)cc3cc2c1	2	2	x	x	x
CCCS(=O)(=O)N1CCCC(C(=O)NC(C)c2ccc3c(c2)OCCO3)C1 (configuration not stated)	-6	-4	i	i	i
CN(c1ccccc1)S(=O)(=O)c1ccc(C(=O)OCC(=O)N2CCOCC2)cc1	2	1	i	i	i
O=C(NCc1ccc2c(c1)OCO2)c1ccc(CS(=O)(=O)c2ccc(Br)cc2)o1	5	0	x	x	x
O=C(CCCNS(=O)(=O)c1cccc2nsnc12)NC1CCCCC1	0	-1	x	x	x
CCCC(=O)N(c1ccc2oc(=O)sc2c1)S(=O)(=O)c1ccccc1	-4	-1	i	i	i
O=C(NCc1ccc2c(c1)OCO2)C1CCCN(S(=O)(=O)c2cccnc2)C1 (configuration not stated)	-6	-2	i	i	i
COc1ccccc1-n1nc(C(=O)Nc2ccc3c(c2)OCO3)c2ccccc2c1=O	5	-5	x	x	x
O=C(Nc1ccc2nn(-c3ccccc3)nc2c1)c1ccc(Br)o1	-3	-4	i	i	i
COc1cccc(C2CC(c3ccccc3)Nc3nc(N)nn32)c1 (configuration not stated)	1	4	x	x	x
CCOC(=O)CSc1nc(-c2ccc(OC)cc2)ns1	2	-5	x	x	x
Cc1ccc(NC(=O)C2CCCN(S(=O)(=O)c3cnc[nH]3)C2)cc1F (configuration not stated)	-3	0	i	i	i
O=C(NCCCN1CCOCC1)C1CC(=O)N(CCc2ccccc2)C1 (configuration not stated)	5	5	i	i	i
Cc1ccc(CNC(=O)Nc2cccs2)cc1	-7	-5	x	x	x
CN1CCN(c2ccccc2NC(=O)Cc2cn(C)c3ccccc23)CC1	6	6	x	x	x
O=C(NCCCn1ccnc1)c1noc2c1CCCC2	4	4	x	x	x
Nc1ccc2oc(CCc3ccccc3)nc2c1	5	-3	x	x	x
O=C(Cn1nc(Cc2ccncc2)c2ccccc2c1=O)N1CCN(C(=O)c2ccco2)CC1	-5	2	i	i	i
Cn1cccc1Cc1nnc(SCC(=O)NC2CCCCC2)n1CCc1ccccc1	-4	2	x	x	x
O=C(CCNS(=O)(=O)c1cccc2nsnc12)N1CCN(c2ccccn2)CC1	-9	4	x	x	x

Molecules above containing a halogen (13):
SMILES	FPR binder	FPRL1 binder	VCAM-1 down	VCAM-1 augmentation	VCAM-1 imaging
Cc1cc(N2CCN(C(c3ccccc3)c3ccc(Cl)cc3)CC2)n2ncnc2n1 (configuration not stated)	9	3	x	x	x
O=C(CN1CCN(Cc2ccc(F)cc2Cl)C1=O)NCCCN1CCOCC1	-2	2	i	i	i
OCc1nnn(-c2cccc(C(F)(F)F)c2)c1CO	-5	-9	x	x	x
CC(=O)c1c(C)nc(-c2ccc(Cl)cc2)nc1N=CN(C)C	-15	-12	x	x	x
O=C(c1ccc2c(c1)N(Cc1ccc(F)cc1)C(=O)CS2)N1CCOCC1	1	-2	x	x	x
COc1ccc(C2CCCN2C(=O)Nc2ccc(F)cc2)cc1OC (configuration not stated)	-3	1	x	x	x
CCc1cc2c(=O)c(Oc3ccccc3F)c(C)oc2c(CN(C)C)c1O	5	-4	x	x	x
CCn1cc(C(C)NC(=O)COc2ccc(Cl)cc2C)c(C)n1 (configuration not stated)	-1	-2	i	i	i
O=S1(=O)C=CC(Nc2cccc(Cl)c2)C1 (configuration not stated)	5	-1	i	i	i
O=C1C2CCCN2C(c2ccc(Cl)cc2)N1c1nccs1 (configuration not stated)	-3	-1	i	i	i
O=C(NCc1ccc2c(c1)OCO2)c1ccc(CS(=O)(=O)c2ccc(Br)cc2)o1	5	0	x	x	x
O=C(Nc1ccc2nn(-c3ccccc3)nc2c1)c1ccc(Br)o1	-3	-4	i	i	i
Cc1ccc(NC(=O)C2CCCN(S(=O)(=O)c3cnc[nH]3)C2)cc1F (configuration not stated)	-3	0	i	i	i
